gsp agonist: qHTS for Agonist of gsp, the Etiologic Mutation Responsible for Fibrous Dysplasia/McCune-Albright Syndrome: qHTS; gsp mutant cells, cAMP HTRF, 30 min; control for the full effect not named in the record; Potency, µM (doses to about 76.9 µM), inactives show at the highest dose activation (cAMP increase), actives largely listed as activators; actives 0.13% (n = 340,000); active = well fitted activation curve with a large enough effect; inconclusive = small, poorly fitted or top-dose-only effect, or another doubt; inactive = no such curve, though single readings can be large or run the other way; cell line not stated here;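 also: phosphodiesterase inhibitor Ro 20-1724 added with compounds to block cAMP breakdown; potency is read from the fitted curve at half-maximal effect; nearly all actives have a fitted effect of over 60% in size; about a fifth of the inactives were tested at one dose only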
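Cells stably selected in G418 were plated at 2000/well, grown 16-24 hr, then given compounds in DMSO with the PDE inhibitor […] (300 uM solution added) for 30 min at 37C; cAMP was read by HTRF.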
D2 potentiator: Beta-Arrestin HTS for Positive Allosteric Modulators of the Human D2 Dopamine Receptor: Potentiators; DiscoveRx D2 beta-arrestin cells, luminescence, 90 min; 100% = 57 uM dopamine signal; potentiation, % (test concentration not listed); actives 0.23% (n = 360,000); AID 624464, 2012; active = potentiation of 50% or more; inconclusive = 30% to 50%; inactive = 30% or less;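 also: compound concentration not given in the record; tested on top of an EC20 dose of dopamine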
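PathHunter D2 cells, attached overnight at 37 deg C, received compound in DMSO plus dopamine at EC20 (50 nM final) for 90 min at 37 deg C. Beta-arrestin recruitment was read as luminescence after 1 h with detection reagent at ambient temperature.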
Menin-MLL FL inh: qHTS Assay for Inhibitors Targeting the Menin-MLL Interaction in MLL Related Leukemias: Competition With Fluorescein Labeled MLL-derived Peptide | Fluorescence polarization, fluorescein-MLL peptide displacement from menin | FP activity change, % at 61.4 µM | 290,000 tested, under 10 active; inconclusive = falling polarisation curve, or a change in total fluorescence; inactive = total fluorescence flat and polarisation flat or rising; no compound was filed as active; the % refers to the polarisation; negative = inhibition;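 also: % of control where 0% means no effect; inhibitors lower the polarisation; unlabelled MLL peptide was the positive control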
Sfp inh: qHTS Assay for Inhibitors of Bacillus subtilis Sfp phosphopantetheinyl transferase (PPTase); Biochemical Sfp PPTase activity, qHTS; actives 3.5% (n = 310,000); Potency, µM, without a hit: max response, negative = inhibition, most hits filed as inhibitors; 4'-phosphopantetheinyl transferase ffp (Bacillus subtilis), Q9F4F7; AID 1490, 2009; active = well fitted inhibition curve with a large enough effect; inconclusive = small, poorly fitted or top-dose-only effect, or another doubt; inactive = no such curve, though single readings can be large or run the other way;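 also: the enzyme is Sfp with the accession as filed and its product quenches rhodamine fluorescence; potency is read from the fitted curve at half-maximal effect; 0% = enzyme reaction without inhibitor and -100% = no enzyme wells; top concentration of the series not given in the record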
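After 15 min at room temperature with compound, 15 nM Sfp received 5 uM rhodamine-CoA plus 12.5 uM BHQ-2-ybbR (50 mM Hepes pH 7.6, 10 mM MgCl2). Rate came from the fluorescence difference over 30 min, ex 525/em 598 nm.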
TRPV1 PAM: HTS Assay for Compounds that Act as Potentiators of the Vanilloid Receptor 1 | actives 0.02% (n = 320,000) | AID 540277, 2011 | TRPV1-expressing cells, Fluo-8 calcium influx, capsaicin EC20 potentiation; host cell line not named in the record; control for the full effect not named in the record | potentiation, % at 8.33 µM; active means potentiation above 80%; inconclusive means 30% to 80%; inactive means below 30%; also: 0% is about no effect
Target sequence (Q8NER1 whole entry, looked up): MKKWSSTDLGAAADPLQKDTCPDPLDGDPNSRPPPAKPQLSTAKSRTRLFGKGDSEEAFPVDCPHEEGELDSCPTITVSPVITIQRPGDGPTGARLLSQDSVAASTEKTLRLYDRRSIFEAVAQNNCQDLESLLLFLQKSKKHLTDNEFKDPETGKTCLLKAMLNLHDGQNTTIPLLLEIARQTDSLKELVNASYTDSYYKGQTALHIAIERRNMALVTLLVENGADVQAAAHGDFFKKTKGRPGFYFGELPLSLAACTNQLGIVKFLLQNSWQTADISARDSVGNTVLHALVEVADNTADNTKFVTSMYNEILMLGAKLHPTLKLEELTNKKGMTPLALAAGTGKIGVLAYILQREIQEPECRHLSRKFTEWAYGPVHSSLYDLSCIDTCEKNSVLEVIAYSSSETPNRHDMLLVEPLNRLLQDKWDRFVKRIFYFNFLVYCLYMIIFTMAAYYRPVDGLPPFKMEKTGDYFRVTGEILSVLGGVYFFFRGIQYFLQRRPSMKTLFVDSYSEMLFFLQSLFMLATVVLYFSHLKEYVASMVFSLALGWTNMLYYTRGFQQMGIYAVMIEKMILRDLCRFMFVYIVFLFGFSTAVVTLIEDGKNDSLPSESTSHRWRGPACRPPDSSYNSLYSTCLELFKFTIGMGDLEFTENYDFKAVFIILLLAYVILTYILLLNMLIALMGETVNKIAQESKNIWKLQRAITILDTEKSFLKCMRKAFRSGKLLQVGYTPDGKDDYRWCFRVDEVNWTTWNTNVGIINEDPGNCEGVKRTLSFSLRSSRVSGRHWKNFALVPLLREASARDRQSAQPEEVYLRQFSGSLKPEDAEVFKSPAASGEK
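TRPV1-expressing cells were cultured overnight at 35.5C and loaded with Fluo-8 calcium dye for 40 to 90 min at room temperature. After a 10 s baseline, compound was added and calcium influx was read kinetically for 3 min (ex 480/em 520 nm).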
gsp antag: qHTS for Antagonists of gsp, the Etiologic Mutation Responsible for Fibrous Dysplasia/McCune-Albright Syndrome: qHTS | gsp-mutant cells, cAMP HTRF, 30 min; control for the full effect not named in the record | Potency, µM (doses to about 76.9 µM), for inactives: top-dose activity change, negative = inhibition, most hits filed as inhibitors | actives 0.4% (n = 340,000); active = falling curve of any shape with a large fitted effect; inconclusive = falling curve, mostly with a smaller effect; inactive = flat or rising curve; cell line not stated here;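 also: intracellular cAMP measured with PDE inhibitor Ro 20-1724 present during compound exposure; potency is read from the fitted curve at half-maximal effect; % is scaled to controls: 0 for no effect and ±100 for the full control effect; nearly all actives have a fitted effect of over 65% in size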
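Measurement of cellular cAMP by homogeneous time-resolved fluorescence following a 30 min compound exposure at 37C. The PDE inhibitor […] was present throughout; the assay buffer was DPBS with 0.05% BSA and 0.005% Tween 20.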
ClpP mod: qHTS Assay for Activators of ClpP; Potency, µM (highest dose often 57.5 µM), for inactives: top-dose activity change, negative = active; actives 1.9% (n = 340,000); ATP-dependent Clp protease proteolytic subunit (Bacillus subtilis (strain 168)), P80244; purified B. subtilis ClpP, FRET peptide cleavage, 20 min; active = well fitted falling curve with a large enough effect; inconclusive = small, poorly fitted or top-dose-only effect; inactive = no such curve, though single readings can be large or run the other way; also: potency is read from the fitted curve at half-maximal effect; the source files actives as falling curves though it sought activators and does not explain the sign; nearly all actives have a fitted effect of over 65% in size; many hits overshoot -100%
Target sequence (P80244 whole entry, looked up): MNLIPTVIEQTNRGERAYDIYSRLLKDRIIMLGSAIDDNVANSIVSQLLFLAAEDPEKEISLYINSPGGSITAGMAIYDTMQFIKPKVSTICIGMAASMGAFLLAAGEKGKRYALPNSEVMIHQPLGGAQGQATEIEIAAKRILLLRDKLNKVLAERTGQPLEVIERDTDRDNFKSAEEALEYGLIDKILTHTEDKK
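Buffer: 100 mM Tris/HCl pH8, 100 mM KCl, 0.05% low protease BSA, 2.5% glycerol, 0.01% Tween-20. ClpP 10 microg/mL final; 20 min RT; delta FRET normalized to ADEP and DMSO controls.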
An asterisk follows results filed as active; ? = inconclusive; · = not tested or not shown; & = joins results of further samples; [ ] = remark or other dose.

molecule,gsp agonist,D2 potentiator,Menin-MLL FL inh,Sfp inh,TRPV1 PAM,gsp antag,ClpP mod
O=C(NC(=S)Nc1ccc(S(=O)(=O)Nc2ccccc2)cc1)C1CC1,10%[15.4 µM],-5,1.1,5%,1,-1%,·
O=C(Oc1c(-c2ccccc2)c(=O)n2c3c(cccc13)CC2)c1ccco1,11%[15.4 µM],6,3.5,13%,-11,-23%,·
CCOCCCNC(=S)N1CCN(CC)CC1,?,-2,-0.5,-2%,2,10%,0.8%
COc1ccc(S(=O)(=O)N2CCCC(C(=O)NC3CC3)C2)cc1OC (stereo not given),2%[15.4 µM],-2,·,·,?,8%,·
Cc1ccc(S(=O)(=O)NCCCN2CCOCC2)c(C)c1,10%,-23,-1.2,16%,0,6%,-1.0%
Cc1cc(C(=O)CSc2nnc(N)s2)c(C)n1-c1c(C)n(C)n(-c2ccccc2)c1=O,?,6,2.3,-9%,8,-5%,-0.6%
C=COCCNC(=S)Nc1cccc(Cl)c1,-5%,-5,-5.1,18%,8,1%,·
CCC(C(=O)NC1CCCC1)N(C(=O)c1snc(C(N)=O)c1N)c1ccc(OC)cc1 (stereo not given),?,-6,3.2,18%,-8,-4%,6.3%
CCc1cc(C(=O)Nc2cc(S(=O)(=O)N(C)C)ccc2C)sc1C,25%,-23,-1.8,4%,3,-3%,-2.4%
COc1ccc(Cn2ccnc2SCC(=O)Nc2ccccc2OC)cc1,14%,-20,-1.8,8%,8,-18%,1.0%
CCCCn1c(N)c(N(CC(C)C)C(=O)C2CCCN(C(=O)c3ccc(Cl)cc3)C2)c(=O)[nH]c1=O (stereo not given),-2%[15.4 µM],-29,·,·,-13,6%,·
NC(=O)COc1ccc(NS(=O)(=O)Cc2ccccc2)cc1,2%[15.4 µM],2,-3.5,10%,2,2%,-1.0%
COc1ccc2ccn(S(=O)(=O)c3ccccc3)c2c1,-9%[15.4 µM],-18,4.3,9%,6,-8%,-1.0%
O=C(CCS(=O)(=O)c1ccc(Br)cc1)N1CCN(c2ccc(Cl)cc2)CC1,3%,-5,8.4,19%,8,-27%,0.5%
O=C(COC(=O)c1cccc(S(=O)(=O)NCc2ccccc2)c1)NC1CC1,-3%[15.4 µM],-6,·,·,·,-1%,·
Cc1ccc(C2=NNC3(CCOC(C)(C)C3)S2)cc1 (stereo not given),-50%[inhibitor],-9,-4.1,-1%,6,6%,·
Cc1cc(N2CCCC2)c(F)cc1/C=C\[N+](=O)[O-],-7%,-2,?,6%,28,12%,-0.8%
COc1cccc(CC(NC(C)=O)C(=O)NC2CCN(c3c(Cc4ccccc4)c(C)nc4ncnn34)CC2)c1 (stereo not given),11%[15.4 µM],2,-1.7,8%,6,-16%,-0.3%
Cc1ccc(CNC(=O)CN2C(=O)NC(C)(c3cccc(Br)c3)C2=O)cc1 (stereo not given),-18%,-4,4.6,7%,0,-10%,-0.1%
O=C(CC1SC(N2CCCC2)=NC1=O)Nc1ccc(C(=O)NCCOc2ccccc2F)cc1 (stereo not given),?,-14,·,·,20,-2%,-2.1%
CC(C)c1c(C(=O)N/N=C/c2ccc(C(F)(F)F)cc2)nnn1-c1nonc1N,9%,-5,-12,14%,-4,-12%,-3.2%
O=[N+]([O-])c1cc(/C=N/N2CCCCC2)ccc1Cl,6%,-2,-2.2,1%,-3,-11%,·
Cc1ccc(C)c(Cn2c(=O)c3c(nc4n3CCN4Cc3ccco3)n(C)c2=O)c1,-4%,-3,1.5,-13%,-33,-8%,-2.5%
O=C(NC1CCCCCC1)C1CCN(S(=O)(=O)c2cccc3cccnc23)CC1,9%,1,2.3,-8%,·,-7%,-3.2%
Cc1ccc(-c2csc(NC(=O)c3cccc(N4C(=O)CCC4=O)c3)n2)o1,2%,-2,0.7,20µM*,-10,-12%,-0.7%

Records listed so far marked active in Sfp inh.
smiles,gsp agonist,D2 potentiator,Menin-MLL FL inh,Sfp inh,gsp antag
Cc1ccc(-c2csc(NC(=O)c3cccc(N4C(=O)CCC4=O)c3)n2)o1,2%,-2,0.7,20µM*,-12%

The listing continues.
molecule,gsp agonist,D2 potentiator,Menin-MLL FL inh,Sfp inh,TRPV1 PAM,gsp antag,ClpP mod
CCOC(=O)c1ccc(S(=O)(=O)N2CCN(c3ccccn3)CC2)cc1,-6%[15.4 µM],1,-1.7,3%,-5,-9%,·
NC(=O)Nn1c(CCC(=O)O)ccc1-c1ccc(Br)cc1,3%,-7,-0.6,-28%,1,7%,-12%
CC(C)c1ccc(OCc2nc(-c3ccccn3)no2)c(Br)c1,-34%[inhibitor],-2,-1.3,-17%,-11,-5%,-2.3%
Cc1cccc(NC(=O)CSc2nc3nc4c(cc3c(=O)n2-c2ccccc2)CCCC4)c1,-17%,4,14,-26%,8,-1%,-4.7%
COc1cccc(NC(=O)c2ccccc2)c1,·,-10,·,·,-6,10%,1.7%
O=P(CCC(F)(F)F)(CCC(F)(F)F)CCC(F)(F)F,-16%,-6,0.0,22%,-3,9%,0.0%
Cc1ccccc1CC1(CO)CCCN(C(=O)Cc2c(F)ccc(F)c2F)C1 (stereo not given),?,-3,-7.4,7%,-6,-14%,0.5%
O=C(C1=CC=CN2CCS(=O)(=O)N=C12)N1CCN(c2cccc(Cl)c2)CC1,-2%,0,·,·,-4,14%,-0.7%
Cn1nnnc1SCC(=O)Nc1c(Cl)cccc1Cl,-40%[inhibitor],-10,-0.7,13%,-5,2%,0.9%
COc1ccc(-c2coc3cc(OC)cc(O)c3c2=O)cc1,-9%[15.4 µM],-10,-0.5,12%,-8,-7%,-2.1%
O=C(O)c1cccc(NN=C2c3ccccc3-c3ccccc32)c1,4%[15.4 µM],-4,2.8,13%,0,-13%,·
Cc1noc(/C=C/c2ccco2)c1S(=O)(=O)N1CCC(C(=O)Nc2ccc(Cl)cn2)CC1,1%,-6,·,-12%,11,3%,-11%
O=C(Nc1ccc(-c2noc(-c3cccs3)n2)cc1)c1cccnc1,-4%,1,0.2,5%,4,?,-12%
O=C(c1ccccc1)N1N=C(C(F)(F)F)CC1(O)c1ccc(F)cc1 (stereo not given),6%[15.4 µM],-4,8.0,2%,-4,-5%,-0.4%
COc1cccc(CN(C)C(=O)c2ccc3c(=O)n4c(nc3c2)CCC4)c1OC,?,8,·,10%,-2,10%,0.6%
COc1ccccc1CN(CC(=O)NCc1ccco1)C(=O)CNS(=O)(=O)c1ccc(C)cc1,-30%[inhibitor],2,1.8,5%,?,-19%,-2.0%
CCc1cc(=O)oc2cc(C)cc(OCC(=O)NCc3ccccn3)c12,11%,0,·,4%,-10,3%,3.9%
Cc1ccccc1C(=NCCCN(C)C)c1ccccc1C,-18%,-31,-1.1,4%,-6,18%,3.5%
COc1ccc(Cl)cc1S(=O)(=O)n1ccnc1C(C)C,-12%,-5,2.9,3%,-22,0%,1.8%
Cc1nc(Nc2ccc(Cl)cc2)c2oc3ccccc3c2n1,8%[15.4 µM],-4,-8.4,-10%,1,-17%,·
Cc1ccc(N(C(=O)CNC(=O)c2ccco2)C(C(=O)NC2CCCC2)c2cccnc2)cc1F (stereo not given),-7%[15.4 µM],-10,0.0,22%,-1,15%,1.2%
Nc1nnc(Cc2cccc(Br)c2)s1,-10%,-1,2.1,13%,-4,14%,·
O=C(c1ccc(Br)s1)N1CCN(Cc2ccc3c(c2)OCO3)CC1,-32%[inhibitor],-22,0.6,11%,2,-10%,-1.8%
CN1CCN(c2ccc(NC(=O)c3ccc(-c4ccc(Cl)cc4)o3)cc2)CC1,?,-12,-3.9,-23%,-7,2%,3.8%
CCOc1ccc(CCNC(=O)c2ccc3c(=O)n4c(nc3c2)CCCCC4)cc1,-32%,4,0.3,9%,-2,-20%,-2.0%

An excerpt from above in order of number of heavy atoms, highest first.
molecule,gsp agonist,D2 potentiator,Menin-MLL FL inh,Sfp inh,TRPV1 PAM,gsp antag,ClpP mod
COc1cccc(CN(C)C(=O)c2ccc3c(=O)n4c(nc3c2)CCC4)c1OC,?,8,·,10%,-2,10%,0.6%
Cc1ccccc1CC1(CO)CCCN(C(=O)Cc2c(F)ccc(F)c2F)C1 (stereo not given),?,-3,-7.4,7%,-6,-14%,0.5%
CCOC(=O)c1ccc(S(=O)(=O)N2CCN(c3ccccn3)CC2)cc1,-6%[15.4 µM],1,-1.7,3%,-5,-9%,·

(next part)
molecule,gsp agonist,D2 potentiator,Menin-MLL FL inh,Sfp inh,TRPV1 PAM,gsp antag,ClpP mod
CCc1cccc2c(C#N)cn(CC(=O)NCc3ccco3)c12,9%,-22,1.3,-8%,6,13%,0.2%
CC1=C(C(=O)N2CCOCC2)CC(CC(=O)NCc2ccco2)C(=O)N1Cc1ccc(F)cc1 (stereo not given),-37%[inhibitor],2,·,·,·,·,1.4%
CCOC(=O)/C=C/[C@H]1CCc2cccc(C)c2O1,·,-3,·,·,-8,3%,3.4%
COc1ccc(C(=O)N[C@H](C(=O)Nc2cccc(S(=O)(=O)N3CCOCC3)c2)C(C)C)cc1,-25%,-21,·,·,·,·,-2.0%
COc1cc(C2C(C#N)=C(N)OC3=C2C(=O)CCC3)cc2c1OCO2 (stereo not given),-3%[15.4 µM],-5,8.9,3%,9,-4%,-0.8%
Cn1c(=O)c2cc(S(=O)(=O)Nc3ccc4c(c3)OCO4)ccc2n(C)c1=O,13%,-19,3.0,-3%,-19,-2%,-3.6%
O=C(O)CCn1ccc2cc(S(=O)(=O)N3CCCCCC3)ccc21,15%,-5,·,12%,28,1%,-14%&-11%

Some entries already given, showing only gsp antag.
mol	gsp antag
Cc1cc(N2CCCC2)c(F)cc1/C=C\[N+](=O)[O-]	12%
COc1cccc(CC(NC(C)=O)C(=O)NC2CCN(c3c(Cc4ccccc4)c(C)nc4ncnn34)CC2)c1 (stereo not given)	-16%

From PubChem

Rows are unselected, and some 5.1% of all compounds hit somewhere here.
